Mtb H37Rv: Mycobacterium tuberculosis H37Rv growth inhibition, cell based, confirmatory dose response (AID 1949) | most inactive calls were filed without a number and no value below 0 was filed | one-dose inhibition, % at 10 µg/mL; IC50 in µg/mL for titrated hits | 100,000 tested, 1.6% active | M. tuberculosis H37Rv growth inhibition;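 active means confirmed in a dose series; inconclusive means about 50% or more but not retested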;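 further: bacteria grown 7 days with compound before Alamar blue readout; 0% = untreated bacteria and 100% = reference antibiotic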
* = called active by the depositor; i = inactive; ? = inconclusive. Only part of the results is shown, so the mix of outcomes need not match the whole.

Preview (eight entries):
SMILES | Mtb H37Rv
COc1ccc(-c2csc3ncnc(N4CCN(Cc5ccc6c(c5)OCO6)CC4)c23)cc1 | 7%
Cc1cccc(C(=O)N2CCN(C)CC2)c1 | i
COc1ccc(NC(=O)CSC2=NC(c3ccccc3)CC(=O)N2)cc1Br (stereo not drawn) | 2%
CN(c1ccccc1C(=O)Nc1ccc(F)c(Cl)c1)S(C)(=O)=O | i
CCOC(=O)C1=C(C)N(C)C(C)=C(C(=O)OCC)C1c1ccncc1 | 24%
COc1ccc(S(=O)(=O)N2CCC(C(=O)NCC3CCCO3)CC2)cc1OC (stereo not drawn) | i
O=C(CSc1ncccn1)N1c2ccccc2Sc2ccc(Cl)cc21 | i
N#Cc1cc2nc3c(nc2cc1C#N)-c1cccc2cccc-3c12 | 2%

This part in full, from the start:
SMILES | Mtb H37Rv
COc1ccc(-c2csc3ncnc(N4CCN(Cc5ccc6c(c5)OCO6)CC4)c23)cc1 | 7%
Cc1cccc(C(=O)N2CCN(C)CC2)c1 | i
COc1ccc(NC(=O)CSC2=NC(c3ccccc3)CC(=O)N2)cc1Br (stereo not drawn) | 2%
CN(c1ccccc1C(=O)Nc1ccc(F)c(Cl)c1)S(C)(=O)=O | i
CCOC(=O)C1=C(C)N(C)C(C)=C(C(=O)OCC)C1c1ccncc1 | 24%
COc1ccc(S(=O)(=O)N2CCC(C(=O)NCC3CCCO3)CC2)cc1OC (stereo not drawn) | i
O=C(CSc1ncccn1)N1c2ccccc2Sc2ccc(Cl)cc21 | i
N#Cc1cc2nc3c(nc2cc1C#N)-c1cccc2cccc-3c12 | 2%
COc1ccc(-c2nc(-c3cccs3)c(-c3cccs3)[nH]2)cc1 | 6%
Cc1ccc(NC(=O)COc2ccc(C(=S)N3CCCCC3)cc2Cl)cc1 | i
CCCCNS(=O)(=O)c1cccc([N+](=O)[O-])c1 | i
Cn1c(COc2ccccc2)nnc1SCc1nc2ccccc2[nH]1 | 0%
CN(Cc1ccccc1)S(=O)(=O)c1ccc(Br)s1 | 2%
CCOC(=O)c1sc(NC(=O)CSc2nc(C)cc(C)n2)c(C(=O)OCC)c1C | i
Cc1cccc(OCCn2c(NC(=O)c3cccc(F)c3)nc3ccccc32)c1 | i
O=Cc1ccccc1OCc1ccccc1F | i
COC(=O)c1sc(NC(=O)CC(c2ccccc2)c2ccccc2)c(C(=O)OC)c1C | i
COc1ccc(Cl)cc1NC(=S)NCCc1c[nH]c2ccccc12 | i
CCOc1ccc(NC(=O)Nc2ccccc2SC)cc1 | i
COc1ccc(C(=O)N(C)C2CCCCC2)cc1I | 1%
CCCCOc1ccc(C(=O)N2CCC(C)CC2)cc1 | i
CCC(=O)N1CCn2c1nc1ccccc12 | i
O=[N+]([O-])c1ccc2nc(CSc3nc4ccccc4[nH]3)[nH]c2c1 | 15%
c1ccc(Cn2c(C3CC3)nc3ccccc32)cc1 | i
Cc1ccc(S(=O)(=O)N2CCC(C(=O)N3CCN(c4ccccc4F)CC3)CC2)cc1 | i
CC(C)NC(=O)c1ccccc1NS(=O)(=O)c1ccc(Cl)cc1 | i
O=C(Nc1ccc(OCc2ccccc2)cc1)Nc1ccccc1C(F)(F)F | i
COc1cc(NC(C)=O)ccc1NC(=O)Cc1ccccc1 | i
COc1ccc2nc(NC(=O)Nc3ccc(C)cc3)sc2c1 | i
Cc1nc2ccccn2c1-c1csc(Nc2ccc(N)cc2)n1 | 2%
COCCNC(=S)N1CCC(Cc2ccccc2)CC1 | i
COc1ccc(Nc2nc(Nc3ccc(OC)cc3OC)nc(N3CCN(C)CC3)n2)c(OC)c1 | i
O=C(CSc1n[nH]c(-c2ccc(Cl)cc2)n1)Nc1ccc(Br)c(Cl)c1 | 6%
COc1cc2c(cc1NC(=O)c1cccs1)oc1ccccc12 | 3%
Cc1ccccc1CN1CCN(C(=O)c2ccccc2F)CC1 | 3%
COC(=O)CSc1nnc(-c2sc3cc(OC)ccc3c2Cl)n1C | ?
O=C(Nc1cccnc1)C1CC(c2ccccc2O)=NO1 (stereo not drawn) | i
COc1ccccc1N1CCN(CC(O)COc2ccc(C)cc2C)CC1 (stereo not drawn) | 1%
O=C(Nc1ccc([N+](=O)[O-])cc1Br)C(F)(F)F | i
Fc1ccc(NC(=S)Nc2ccc(Cl)cc2Cl)cc1 | 43%
CCCc1ccc(-c2nc(Cc3ccc(OC)c(OC)c3)no2)cc1 | i
COC(=O)c1c(NC(=O)c2cnn3c(C(F)F)cc(-c4ccccc4)nc23)sc2c1CCCC2 | i
COc1ccc(NC(=S)NCCc2c[nH]c3ccccc23)c(OC)c1 | i
CCOc1ccccc1C(=O)NC(C)(C)CC | 13%
Cc1ccc(NC(=O)CN2C(=O)C3C4CCC(C4)C3C2=O)cc1 (stereo not drawn) | i
COC(=O)Nc1ccc2ccccc2c1 | 2%
COc1ccccc1OC(=O)C(c1ccccc1)c1ccccc1 | i
O=C(CSc1ccc(Br)cc1)Nc1ccccc1 | 7.7µg/mL*
CC(=O)Oc1ccc(C(=O)N(Cc2ccccc2)c2ccccn2)cc1 | i
Cc1cc(C)cc(NC(=O)c2ccccc2NC(=O)c2ccco2)c1 | i
COC(=O)Cc1c(C)c2ccc(OCC(=O)c3ccc(Cl)cc3)cc2oc1=O | i
Cc1cc(C)c2c(N)c(C#N)sc2n1 | i
COc1ccc(Nc2nc(N)nc(C(F)(F)F)n2)c(OC)c1 | 5%
CCc1nnc(NC(=O)C(C)Oc2ccc(Cl)cc2C)s1 (stereo not drawn) | 4%
NC(=O)CN(Cc1ccc(F)cc1)S(=O)(=O)c1ccccc1 | i
Cc1ccc(O)c(NC(=O)COc2ccc(F)cc2)c1 | 7%
O=C(Nc1ccccc1)c1cc(S(=O)(=O)Nc2cccnc2)cs1 | 6%
O=C(NCc1ccco1)c1ccc(COc2cc(Cl)ccc2Cl)cc1 | i
O=C(NC1CCCC1)C1CCN(S(=O)(=O)c2ccc(Cl)cc2)CC1 | 1%
Cc1cccc(NC(=O)c2cnn(-c3ccccc3)c2NC(=O)c2ccc(F)cc2)c1 | i
Following part:
SMILES | Mtb H37Rv
CC(=O)Oc1cccc(N2C(=O)C3C4c5ccccc5C(C)(c5ccccc54)C3C2=O)c1 (stereo not drawn) | i
Cc1ccc(-c2csc(NC(=S)NC(=O)c3ccc4ccccc4c3)n2)cc1 | i
COc1ccc(CCNC(=O)c2cc(-c3ccc(OC)c(OC)c3)nc3ccccc23)cc1 | i
COc1cc(OC)c(C(=O)NC2CCCC2)cc1OC | i
CC1CCc2oc3ccc(NS(=O)(=O)c4ccccc4)cc3c2C1 (stereo not drawn) | i
Cc1ccc(-c2nc3ccccc3[nH]2)cc1NC(=O)CCCc1ccccc1 | i
COc1ccccc1N1C(=O)CC(Sc2n[nH]c(-c3cccc(C)c3)n2)C1=O (stereo not drawn) | i
CC(=O)c1cccc(NC(=S)NCCCCc2ccccc2)c1 | ?
Cc1ccc([N+](=O)[O-])cc1NC(=O)c1ccccc1Br | i
N/C(=N\C(=O)Nc1ccccc1)N1CCN(Cc2ccccc2)CC1 | i
CC(=O)N1CCN(c2ccc(NC(=S)NC(=O)c3cc(I)ccc3Cl)cc2)CC1 | i
COc1ccc(NC(=O)CN(C)C)cc1 | i
Cc1ccc(NS(=O)(=O)c2ccc(F)cc2)cc1[N+](=O)[O-] | i
CC(C)Oc1ccccc1NC(=O)CSc1nccn1C | i
CC(C)c1ccc(C(NC(=O)C2CCCCC2)c2ccc3cccnc3c2O)cc1 (stereo not drawn) | 3%
CC(C)CN(CC(C)C)C(=O)c1cccc(F)c1 | i
COc1ccccc1OCC(=O)Nc1cccc(-c2nnc(-c3ccco3)o2)c1 | i
O=C(COc1ccc(Br)cc1)Nc1ccc(O)cc1C(=O)O | 18%
COC(=O)CC1C(=O)NCCN1C(=O)COc1ccc(Cl)cc1 (stereo not drawn) | i
COc1ccc(OC)c(NC(=O)Cc2cccs2)c1 | i
O=C(Cc1ccc(Cl)cc1)Nc1nnc(Cc2ccccc2)s1 | i
O=C(CSc1ccccc1)NCc1ccco1 | i
S=C(NCCc1ccccc1)NCCN1CCOCC1 | 3%
Cc1ccc2c(c1)nc(NCCCO)n2C | i
Cc1c(C2c3ccccc3Oc3ccccc32)c(=O)n(C)n1-c1ccccc1 | 3%
O=C(NC(=S)Nc1ccccc1N1CCOCC1)c1cccs1 | i
Cc1ccc(C)c(S(=O)(=O)ON2C(=O)c3ccccc3C2=O)c1 | i
CCN(CC)c1ccc(NC(=O)c2cnccn2)cc1 | 2.4µg/mL*
Cc1nc(Nc2ccc(F)cc2)[nH]c(=O)c1CCC(C)C | 2%
COc1ccccc1C1CC(=O)CC(c2ccccc2OC)S1 (stereo not drawn) | 1%
C=CCNC(=O)CN(c1ccc(OCC)cc1)S(C)(=O)=O | 11%
COc1cc2ccccc2cc1C(=O)NC(=S)Nc1ccc(-c2nc3ccccc3[nH]2)cc1 | i
Cc1ccc(SCCNC(=S)Nc2ccc(F)cc2)cc1 | i
CC(=O)c1cccc(NC(=O)c2cc(C)c(C)o2)c1 | 2%
FC(F)(F)c1ccccc1-n1c(-c2cccs2)n[nH]c1=S | 13%
CC1CCN(C(=O)c2cc3ccccc3o2)CC1 | 1%
Cc1cccc(OCCCn2c(CCNC(=O)C(C)C)nc3ccccc32)c1 | i
CC(=O)Oc1ccc(C(=O)Nc2ccc(Cl)c(C(F)(F)F)c2)cc1 | 42%
C=CCOc1ccc(/C=C/c2[nH]c(=O)[nH]c(=O)c2[N+](=O)[O-])cc1OC | i
O=C(CC(c1ccccc1)c1cc(Cl)ccc1O)NCCN1CCOCC1 (stereo not drawn) | i
Cc1ccc(C(=O)Oc2ccccc2Cl)cc1 | i
CCOC(=O)C1CCN(S(=O)(=O)c2cccc3nsnc23)CC1 | i
Cc1ccc(S(=O)(=O)N2CCC(C(=O)N3CCCC3)CC2)cc1 | i
CCC(=O)Nc1ccc(NC(=S)Nc2ccccc2)cc1 | 3%
NC(=O)C1CCCN(C(=O)Nc2cccc3ccccc23)C1 (stereo not drawn) | 2%
CCOC(=O)N1CCN(C(=O)CSCc2ccc(C)cc2)CC1 | i
C=CCOc1c(Cl)cc(/C=C/[N+](=O)[O-])cc1OCC | 23µg/mL*
Cc1cc(C)c(NC(=O)C2CCN(S(C)(=O)=O)CC2)c(C)c1 | i
COCC(C)NCc1ccc(OC)c(OC)c1OC (stereo not drawn) | i
COc1ccc(Cl)cc1N(CC(=O)Nc1ccccc1C(N)=O)S(=O)(=O)c1ccccc1 | i
CCc1cc2c(SCC(=O)Nc3cccc(C)c3)ncnc2s1 | i
COc1cccc(N2CCN(c3ncnc4c3cnn4-c3ccccc3)CC2)c1 | i
N#C/C(=C\c1cn[nH]c1-c1ccccc1)c1nc(-c2cc3ccccc3oc2=O)cs1 | i
O=[N+]([O-])c1ccc(Cn2cccn2)cc1 | i
COC(=O)c1cn(C(=O)CCCN2C(=O)c3ccccc3C2=O)c2ccccc12 | 11%
C=CCc1cc(OC)ccc1OCCCN1CCN(C)CC1 | i
COc1cc(S(=O)(=O)NC2CCCCC2)ccc1F | i
CC(C(=O)OCC(=O)c1ccccc1)N1C(=O)c2cc(Cl)c(Cl)cc2C1=O (stereo not drawn) | i
CCc1ccc(N(CC(=O)NC2CCCCC2)S(C)(=O)=O)cc1 | i
CCOC(=O)c1sc(NC(=O)COc2c(C)ccc(C)c2C)nc1C | i

2 entries drawn at random from the list so far, as already listed:
SMILES | Mtb H37Rv
S=C(NCCc1ccccc1)NCCN1CCOCC1 | 3%
CC1CCN(C(=O)c2cc3ccccc3o2)CC1 | 1%

Some of the entries above in another layout:
SMILES	Mtb H37Rv
CC(C)Oc1ccccc1NC(=O)CSc1nccn1C	i
CC(C)c1ccc(C(NC(=O)C2CCCCC2)c2ccc3cccnc3c2O)cc1 (stereo not drawn)	3%
CC(C)CN(CC(C)C)C(=O)c1cccc(F)c1	i
COc1ccccc1OCC(=O)Nc1cccc(-c2nnc(-c3ccco3)o2)c1	i
O=C(COc1ccc(Br)cc1)Nc1ccc(O)cc1C(=O)O	18%
COC(=O)CC1C(=O)NCCN1C(=O)COc1ccc(Cl)cc1 (stereo not drawn)	i
COc1ccc(OC)c(NC(=O)Cc2cccs2)c1	i
O=C(Cc1ccc(Cl)cc1)Nc1nnc(Cc2ccccc2)s1	i
O=C(CSc1ccccc1)NCc1ccco1	i
S=C(NCCc1ccccc1)NCCN1CCOCC1	3%

(next part)
SMILES | Mtb H37Rv
Cc1ccccc1CSCCNC(=O)CN(c1c(C)cccc1C)S(C)(=O)=O | i
Cc1nc2c([nH]c3ccc(Br)cc32)s1 | i
COC(=O)COc1cccc(NC(=O)COc2ccccc2)c1 | 41%
COCCCNC(=O)c1ccc(CSc2ccc(Cl)cc2)cc1 | 13%
O=C1CC(N2CCN(c3ccc(F)cc3)CC2)C(=O)N1c1cccc([N+](=O)[O-])c1 (stereo not drawn) | i
Cc1oc2c(O)c(O)ccc2c(=O)c1-c1ccccc1Cl | i
CC1(C)CC(=O)c2cnc(NC(=O)CSc3nc4ccccc4s3)nc2C1 | i
O=C(Cn1c(=O)n(Cc2ccco2)c(=O)c2c3c(sc21)CCCC3)Nc1ccccc1 | i
CCC(Sc1nc2ccccc2[nH]1)C(=O)Nc1ccc(Cl)cc1 (stereo not drawn) | i
CC(NC(=O)Cc1cccs1)c1ccncc1 (stereo not drawn) | i
COCCCNC(=S)NCCc1ccc(F)cc1 | 1%
CS(=O)(=O)c1nc2ccccc2n1Cc1ccccc1F | i
CCn1cc(Br)c(C(=O)Nc2ccccc2C(=O)OC)n1 | 1%
COc1ccc(CN(C(C)=O)c2cccc(C)c2C)cc1 | 6%
C=C(C)Cn1c(SCC(=O)OCC)nc2ccc(Br)cc2c1=O | ?
Cc1ccc(NC(=S)Nc2ccc(Cl)cc2Cl)nc1 | i
C=CCn1c(O)c(C2=c3ccccc3=NC2=O)sc1=N | <0.1µg/mL*
COC(=O)CSc1nc(N2CCOCC2)c2c(c1C#N)CC(C)(C)N(C)C2 | 0%
COc1cc(S(=O)(=O)N2CCN=C2c2ccccc2)ccc1F | 3%
CCN1CCN(C(=O)Nc2ccccc2)CC1 | i
Cc1ccc2cccc(OC(=O)N(C)c3ccccc3)c2n1 | 2%
CSc1ccccc1NS(=O)(=O)c1ccc(Br)s1 | i
S=C(c1ccccc1)N1CCN(c2cccc(Cl)c2)CC1 | i
